Bioassay records from PubChem BioAssay.
SARS PLP yeast: qHTS of Yeast-based Assay for SARS-CoV PLP. S. cerevisiae expressing SARS-CoV PLpro, growth rescue; control for the full effect not named in the record. Potency, µM (doses to about 32.9 µM), for inactives: at the highest dose activity, positive = growth rescue. 0.19% of 330,000 active; also: 0% is about no effect; nearly all actives have a fitted effect of over 55% in size; growth read by luminescence after 48 h
Cruzain noTriton: qHTS Assay for Promiscuous and Specific Inhibitors of Cruzain (without detergent). Cruzipain (Trypanosoma cruzi), P25779. purified cruzain, Z-FR-AMC fluorescence, no detergent. AID 1476, 2009. 2.3% of 200,000 active. Potency, µM, inactives show max response, negative = inhibition, usual class: inhibitors; active = well fitted curve in the direction sought with a large enough effect; inconclusive = small, poorly fitted or top-dose-only effect, or another doubt; inactive = no such curve, though single readings can be large; an effect the other way counts as inactive or inconclusive;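 also: plate controls were enzyme without inhibitor for no effect and buffer without enzyme for full effect; nearly all actives have a fitted effect of over 40% in size; top concentration of the series not given in the record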
Target sequence (P25779 123-467 limits assumed): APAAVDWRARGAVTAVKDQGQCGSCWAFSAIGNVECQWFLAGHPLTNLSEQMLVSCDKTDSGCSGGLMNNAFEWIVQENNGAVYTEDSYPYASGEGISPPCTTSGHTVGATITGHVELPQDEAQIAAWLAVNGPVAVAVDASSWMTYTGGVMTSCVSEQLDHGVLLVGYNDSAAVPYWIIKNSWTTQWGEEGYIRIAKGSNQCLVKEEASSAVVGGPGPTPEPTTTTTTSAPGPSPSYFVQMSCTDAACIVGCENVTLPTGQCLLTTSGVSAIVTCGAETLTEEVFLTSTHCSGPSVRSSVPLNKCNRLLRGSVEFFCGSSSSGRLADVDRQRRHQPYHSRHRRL
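Purified cruzain at 1.5 nM, pre-incubated 15 min with compound at room temperature in 100 mM sodium acetate pH 5.5, 5 mM DTT, 0.00005% Triton X-100. Reaction started with 2 uM Z-FR-AMC; AMC fluorescence increase over 60 s gives rate.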
2A StopGo: High Throughput Screening for Foot and Mouth Disease Virus Antivirals. human cells with a luciferase reporter of 2A StopGo recoding; control for the full effect not named in the record. Potency, µM (titrated, usually from 57.9 µM), for the others: at the top dose signal change, negative = less light. 1.2% of 410,000 active. AID 1159524, 2015; active = well fitted falling curve with a large enough effect; inconclusive = small, poorly fitted or top-dose-only effect; inactive = no such curve, though single readings can be large or run the other way; tested in HEK293T cells; also: % is scaled to controls: 0 for no effect and ±100 for the full control effect; nearly all actives have a fitted effect of over 45% in size; luciferase light after 4 h
Cruzain inh Det: qHTS Assay for Promiscuous and Specific Inhibitors of Cruzain (with detergent); Cruzipain (Trypanosoma cruzi), P25779; purified cruzain, Z-FR-AMC fluorescence, 0.01% Triton; Potency, µM, for the others: max response, negative = inhibition, hits mostly inhibitors; 0.43% of 200,000 active; active = well fitted curve in the direction sought with a large enough effect; inconclusive = small, poorly fitted or top-dose-only effect, or another doubt; inactive = no such curve, though single readings can be large; an effect the other way counts as inactive or inconclusive;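 also: plate controls were neutral wells for no effect and buffer without enzyme for full effect; nearly all actives have a fitted effect of over 40% in size; top concentration of the series not given in the record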
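Steps: dispense cruzain (1.5 nM final) in acetate buffer pH 5.5 with DTT and 0.01% Triton X-100; pin-transfer compounds; incubate 15 min RT; add Z-FR-AMC (2 uM final); read fluorescence every 30 s, using the 60 s intensity change.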
NS1 function inh: qHTS Assay for Inhibitors of Influenza NS1 Protein Function | S. cerevisiae slowed by influenza A NS1, growth recovery by OD600 | Potency, µM (top dose mostly 46.1 µM), for inactives: at the top dose activity, positive = more growth | 0.4% of 270,000 active | AID 2326, 2010; also: actives are rising curves; nearly all actives have a fitted effect of over 50% in size
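Growth recovery, yeast-based: influenza A NS1 expressed in S. cerevisiae causes slow growth, and suppressors are detected by OD600. The parent strain without NS1 is used as positive control.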
Marburg entry inh: qHTS for inhibitors of binding or entry into cells for Marburg Virus; Marburg virus pseudotyped entry inhibition, cell reporter; control for the full effect not named in the record; about a third of the inactives were read at about 46 µM; AID 540276, 2011; Potency, µM (series often up to 37.8 µM), without a hit: top-dose activity change, negative = inhibition, hits mostly inhibitors; 1.8% of 300,000 active; active = well fitted inhibition curve with a large enough effect; inconclusive = small, poorly fitted or top-dose-only effect, or effect the other way; inactive = flat fitted curve, though single readings scatter; tested in HEK293 cells; about a fifth of its hits are not listed in these tables; also: % is scaled to controls: 0 for no effect and ±100 for the full control effect; luciferase read-out
RE007 growth inh: qHTS Assay for Inhibitors of the HIV-1 protein Vpr; S. pombe RE007 Vpr strain, BacTiter-Glo ATP luminescence, 24 h; control for the full effect not named in the record; Potency, µM (highest dose often 92.2 µM), for inactives: top-dose activity change, negative = less growth; 0.21% of 360,000 active; active = well fitted falling curve with a large enough effect; inconclusive = small, poorly fitted or top-dose-only effect; inactive = no such curve, though single readings can be large or run the other way;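 also: % is scaled to controls: 0 for no effect and ±100 for the full control effect; nearly all actives have a fitted effect of over 50% in size; the assay follows cell death caused by Vpr and the record does not say whether a fall means rescue or toxicity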
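Fission yeast strain RE007, carrying one chromosomally integrated HIV-1 vpr copy, was seeded at OD 0.01 in PMG+AL medium with 23 nL pinned compound. After 24 h at 30 °C and 99% humidity, viability was read by BacTiter-Glo luminescence.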
LASV entry inh: qHTS for Inhibitors of binding or entry into cells for Lassa Virus; Lassa virus pseudotype entry inhibition, cell reporter; control for the full effect not named in the record; Potency, µM (top dose mostly 37.9 µM), without a hit: top-dose activity change, negative = inhibition, most hits filed as inhibitors; 1.2% of 300,000 active; AID 540256, 2011; active means well fitted inhibition curve with a large enough effect; inconclusive means small, poorly fitted or top-dose-only effect, or effect the other way; inactive means flat fitted curve, though single readings scatter; tested in HEK293 cells; also: % is scaled to controls: 0 for no effect and ±100 for the full control effect; nearly all actives have a fitted effect of over 50% in size; luciferase read-out
* hit, by the source's call; ? = inconclusive; . = no result given; & = joins results of further samples; [ ] = remark or other dose. Unless noted, calls follow the shape of the dose curve; as a rule, active means well fitted rising curve with a large enough effect; inconclusive means small, poorly fitted or top-dose-only effect; inactive means no such curve, though single readings can be large or run the other way. Potency is read from the fitted curve at half-maximal effect.

SMILES	SARS PLP yeast	Cruzain noTriton	2A StopGo	Cruzain inh Det	NS1 function inh	Marburg entry inh	RE007 growth inh	LASV entry inh
CCN(C(=O)CCc1nnc2ccc(NCc3ccco3)nn12)c1ccccc1	-4%	.	0%	.	11%	13%[46.1 µM]	6%	2%[46.1 µM]
Cc1nnc(SCC(=O)N2CCN(S(=O)(=O)c3ccc(Cl)cc3)CC2)n(N)c1=O	-2%	-4%	-18%	-2.0%	2%	-3%&-3%	-2%	-4%
CC(=O)NCCc1ccc(S(=O)(=O)N2CCCC2)cc1	-4%	-7%	-19%	2.1%	-3%	-2%	0%	14%
COc1ccc(-n2nc(C(=O)NCC(=O)N3CCCCC3)c3ccccc3c2=O)c(OC)c1	-3%	.	27%	.	-16%	39%[46.1 µM]	4%	0%[46.1 µM]
CC(C)n1nc(C(=O)Oc2ccc(Cl)cc2)c2ccccc2c1=O	13%	19%	?	-6.0%	-23%	0%	-26%	-26%
O=C(Cc1ccc(-c2ccccc2)cc1)NCCS(=O)(=O)N1CCN(c2ccccc2F)CC1	.	13µM*	-9%	0.6%	.	.	.	?
COc1nnc(-c2ccc(C)cc2)c2ccccc12	-16%	.	-8%	.	-26%	-13%[46.1 µM]	-14%	-1%[46.1 µM]
CC(=O)Nc1c(-c2ccc3ccccc3c2)nc2ccccn12	-4%	.	56%[activator]	.	0%	.	-9%	.
CC(=O)N1CCN(S(=O)(=O)c2cccc(C(=O)N(Cc3ccccc3)c3ccc(C)cc3)c2)CC1	12%	.	143%[activator]	.	.	?	-9%	-24%
CCOC(=O)c1c(C)[nH]c(C)c1C(=O)Cn1nnc(-c2ccccc2C)n1	1%	-4%	-12%	2.2%	-55%	-7%&-7%	11%	16%
O=C(COC(=O)c1ccccn1)Nc1c(Cl)cccc1Cl	2%	2%	-4%	-1.1%	-2%	28%	-3%	5%
COc1ccccc1CC1S/C(=N/N=C/c2ccco2)NC1=O (stereo unspecified)	0%	.	10%	.	.	?	?	?
Cc1ccc(/C(O)=C2/C(=O)C(=O)N(Cc3cccnc3)C2c2ccccn2)cc1 (stereo unspecified)	-3%	3%	-4%	-5.5%	?	8%	10%	-3%
c1ccc(-c2noc(-c3cccnc3)n2)cc1	.	-3%	.	11%	-3%	-25%	-22%	?
O=C(c1ncc[nH]1)c1cccs1	-1%	.	18%	.	-5%	0%[46.1 µM]	8%	?
COc1ccc(N2CCN(C(=O)CSc3ncccc3-c3nc4ccccc4[nH]3)CC2)cc1	9%	6%	-11%	-0.2%	-19%	1%&7%	-9%	0%
CC1CCCN(C(=O)COC(=O)c2ccc(=O)n(Cc3ccccc3)n2)C1 (stereo unspecified)	0%	.	-10%	.	.	10%	-1%	11%
O=C(CCNS(=O)(=O)c1ccc(Br)s1)N1CCCCC1	5%	-3%	-7%	2.1%	3%	0%	-14%	3%
CCN(CC)C(=O)CCc1nnc(Cc2cccc(C(F)(F)F)c2)o1	0%	.	74%[activator]	.	6%	?	0%	9%
CN1/C(=C\C(=O)c2cncc(Br)c2)C(C)(C)c2ccccc21	-15%	-7%	?	-9.3%	-31%	?	?	?
CCOC(=O)C1CCCN(C(=O)Cc2ccc(Cl)cc2)C1 (stereo unspecified)	6%	-10%	2%	2.7%	-7%	3%	-13%	19%
Cc1cc(=O)oc2cc(OCC3CC(c4ccc(N(C)C)cc4)=NO3)ccc12 (stereo unspecified)	4%	6%	-3%	2.8%	-8%	-1%	-8%	11%
CC1Cc2ccccc2N1C(=O)COC(=O)c1ccc(Cl)nc1 (stereo unspecified)	0%	.	-16%	.	-7%	14%	0%	-4%
Cc1ccsc1/C=N/Nc1ccc(Cl)nn1	-3%	.	33%[activator]	.	-9%	.	-17%	.
Cc1c(C(=O)N2CCCCC2)sc(N)c1C#N	8%	-7%	-26%	4.5%	-10%	-1%	-14%	5%
CSc1nc(-c2ccccc2)ccc1C(N)=O	-2%	-7%	24%	-2.9%	4%	5%	0%	?
COc1ccc(CNCc2ccco2)cc1OCc1ccccc1	3%	8%	.	15%	?	-28%	6%	-8%
O=C(CSc1nnc(NC(=O)c2ccco2)s1)Nc1ccccc1Br	1%	.	10%	.	11%	20%[46.1 µM]	-17%	.
CCCC(=O)C1=C(c2ccccc2)C(C#N)(C#N)C(C#N)=C1N	4%	-6%	6%	-11%	11%	-10%	4%	-6%
Cc1ccc2nc(-c3ccccc3)cc(C(=O)NCCCn3ccnc3)c2c1	-4%	-6%	1%	5.5%	-25%	-9%	18%	4%
CCc1nnc(N/N=C/c2c(Cl)cccc2Cl)n1N	-15%	-7%	-6%	-2.8%	-19%	-1%	-13%	-18%[14.3 µM]
Cn1c(=O)n(C)c2cc(NS(=O)(=O)c3ccccc3)ccc21	-5%	.	18%	.	8%	1%[46.1 µM]	11%	18%[46.1 µM]
N#CCC(=O)NN=C1CCCCCCCCCCC1	6%	-6%	-18%	2.8%	1.8µM*	-2%	-14%	?
O=C(NN=C1c2ccccc2-c2ccccc21)c1ccccc1Br	-5%	-27%	10%	-3.8%	20%	-22%	-3%	?
CC(C)C[C@H](NC(=O)C1CC(=O)N(c2ccc3c(c2)OCCO3)C1)C(=O)NC1CCCC1 (stereo partly specified)	-8%	.	-9%	.	0%	.	2%	.
CCOc1ccc(NC(=S)N2CCC(c3nc4ccccc4[nH]3)CC2)cc1	-1%	.	-19%	.	-1%	.	1%	.
COc1ccccc1N1CCN(C2CCCCC2NS(=O)(=O)c2ccccc2)CC1 (stereo unspecified)	-3%	.	-19%	.	-18%	?	-4%	16%[46.1 µM]
CN(C)c1ccc2c(c1[N+](=O)[O-])Cc1ccccc1-2	.	.	11%	.	.	?	-29%	9%
CC1(C)Cc2c(cnn2-c2ccc(F)cc2)C(NC(=O)CCc2ccncc2)C1 (stereo unspecified)	3%	.	19%	.	-12%	.	7%	.
COc1cccc(C2NC(=O)NC(C)=C2C(=O)OCC2CCCO2)c1 (stereo unspecified)	-2%	.	-1%	.	.	19%[46.1 µM]	1%	11%
O=C(c1ccc2ncsc2c1)N1CCN(c2cccc(C(F)(F)F)c2)CC1	-2%	.	-22%	.	.	?	-22%	?
CCOc1ccc(-n2c(SCC(=O)Nc3ccc(F)cc3)nc3c([nH]c4ccccc43)c2=O)cc1	.	1%	0%	-2.1%	.	.	.	0%[46.1 µM]
CC1(C)Cc2c(sc(NC(=O)c3ccc4ncsc4c3)c2C(N)=O)C(C)(C)N1	0%	.	6%	.	.	?	-14%	?
O=C(CSc1nnc(CNC(=O)c2c(F)cccc2F)o1)Nc1ccc2c(c1)OCCO2	-4%	.	-18%	.	2%	-2%	16%	5%
COCC(C)n1c(C)cc(C(=O)Cn2c(=O)oc3ccccc32)c1C (stereo unspecified)	8%	9%	26%	-0.1%	-6%	15%	5%	10%
O=C(NCc1ccco1)c1ccc2c(c1)N(Cc1ccc(Cl)cc1)C(=O)c1ccccc1S2	.	?	-3%	0.6%	.	.	.	-27%[46.1 µM]
CC1CCCCN1Cc1ccc(Cl)nc1 (stereo unspecified)	0%	.	-14%	.	.	10%[46.1 µM]	7%	1%
COc1ccc(NC(=O)CSc2nc(=O)n(CCN3CCOCC3)c3c2CCC3)c(OC)c1	-2%	.	9%	.	.	28%	-8%	-7%
COc1ccc(S(=O)(=O)NC2CCCCCC2)cc1C(N)=O	4%	.	27%	.	16%	18%[46.1 µM]	-7%	13%[46.1 µM]
Cc1ccc(/C=N/Nc2nc(N3CCOCC3)nc(N3CCOCC3)n2)o1	2%	.	-22%	.	.	?	14%	6%[46.1 µM]
Cc1nc2c(nnn2Cc2c(Cl)cccc2Cl)c(=O)[nH]1	1%	.	-10%	.	5%	?	62%	?
CC(C)(C)c1ccc(N2C(=O)CC(C/C=C/c3ccccc3)C2=O)cc1 (stereo unspecified)	3%	.	-4%	.	1%	.	0%	.
Cc1cc(=O)cc(C)n1-c1ccccc1Br	1%	.	-12%	.	2%	.	8%	.
Cc1cc(C)nc(NC(=O)c2cccs2)n1	0%	.	3%	.	-63%	.	16%	.
CCOc1cc(C2NC(=O)c3ccccc3O2)ccc1OC (stereo unspecified)	-1%	.	-22%	.	2%	19%	2%	6%
CC(=O)N1CCc2ccc(S(=O)(=O)N3CC(C)OC(C)C3)cc21 (stereo unspecified)	11%	-2%	0%	-0.1%	23%	-6%	12%	14%
COc1ccc(Cl)cc1NC(=O)C/C(C)=N/NC(=O)c1ccccc1[N+](=O)[O-]	-4%	.	0%	.	-2%	.	-27%	.
CCn1c2ccccc2c2cc(CN3CCN(Cc4ccc(Cl)cc4)CC3)ccc21	.	12%	-26%	3.4%	.	.	.	?
Cc1nnc(SCCC#N)n(CCC#N)c1=O	3%	4%	-7%	-3.8%	4%	5%	7%	22%
COc1ccc(-n2c(=S)[nH]c3sc(-c4ccccc4)cc3c2=O)c(OC)c1	-1%	.	7%	.	13%	?	-13%	1%

(listing goes on)
SMILES	SARS PLP yeast	Cruzain noTriton	2A StopGo	Cruzain inh Det	NS1 function inh	Marburg entry inh	RE007 growth inh	LASV entry inh
Cc1cc(=O)oc2c(C)c(OC3CCCCC3=O)ccc12 (stereo unspecified)	-2%	.	-7%	.	2%	17%[46.1 µM]	-4%	?
CCOc1ccc(S(=O)(=O)N2CCCC(C(=O)NCc3ccccn3)C2)cc1Cl (stereo unspecified)	.	.	-1%	.	.	-3%	-20%	-20%
CCOC(=O)c1c(C)[nH]c(C)c1S(=O)(=O)N1CCCC(C(=O)N2CCN(c3cccc(C)c3C)CC2)C1 (stereo unspecified)	.	23%	1%	1.8%	.	.	.	11µM*
Cc1c2cnn(CC(=O)Nc3c(F)c(F)cc(F)c3F)c(=O)c2c(C)n1Cc1ccccc1F	0%	.	-3%	.	.	1%[46.1 µM]	-8%	21%[46.1 µM]
COc1ccc(OC)c(NC(=O)c2ccno2)c1	0%	.	10%	.	.	0%[46.1 µM]	-21%	14%[46.1 µM]

Rows were taken by chance; overall some 4.7% were active at least once.
